HIV Env fusion – inhibitors of HIV Env-mediated cell fusion. HeLa-JRFL Env/CEM21 cell fusion, luciferase. inhibition, % at 12.3 µM. 1.1% of 360,000 active. AID 651610;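 active means mean replicate inhibition score of at least 50 and every replicate individually at or above 50; inconclusive means only one of the two criteria met; inactive means mean below 50 and not all replicates reaching 50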;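 further: 0% = plate neutral controls and 100% = maraviroc near 300 nM; one replicate is shown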
Yeast UUG start – modulators of start codon recognition fidelity in yeast; S. cerevisiae UUG-firefly luciferase reporter, luminescence/redox ratio; activity score, % at 18.7 µM; 0.13% of 350,000 active; AID 602363;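 active means replicate mean at a twofold rise or more, about +100% in these data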;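 further: firefly luciferase made from a UUG start codon reports start codon fidelity; reporter light over untreated wells divided by growth signal over untreated wells; some hits fall short of that in this replicate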
* marks the source's active call; other numbers are inactive results; ? = inconclusive; [ ] = dose if it differs, or a comment.

mol | HIV Env fusion | Yeast UUG start
Cc1cc(C(=O)Nc2cccc3c2O[C@@H](CN(C)Cc2ccc(Cl)c(Cl)c2)[C@@H](C)CN([C@@H](C)CO)C3=O)n(C)n1 | -21[16.7 µM] | -14
CC(C)NC(=O)Nc1cccc2c1O[C@H](CN(C)C(=O)Nc1cccc3ccccc13)[C@@H](C)CN([C@H](C)CO)C2=O | -22[16.7 µM] | 11
Cc1ccc(S(=O)(=O)N(C)C[C@@H]2Oc3ccc(NC(=O)NC(C)C)cc3C(=O)N([C@H](C)CO)C[C@H]2C)cc1 | -3[16.7 µM] | 9
C[C@@H]1CN([C@H](C)CO)C(=O)c2cccc(NC(=O)Nc3ccc(F)cc3)c2O[C@H]1CN(C)C(=O)NC1CCCCC1 | -14[16.7 µM] | 21
C[C@@H]1CN([C@H](C)CO)C(=O)c2cccc(NC(=O)C3CC3)c2O[C@H]1CN(C)Cc1ccc2c(c1)OCO2 | -5[16.7 µM] | 11
COCC(=O)N(C)C[C@H]1Oc2cc(-c3ccc(F)cc3)ccc2S(=O)(=O)N([C@@H](C)CO)C[C@H]1C | -3[16.7 µM] | -4
CC(C)C#Cc1ccc2c(c1)O[C@@H](CN(C)C(=O)c1ccccc1)[C@@H](C)CN([C@H](C)CO)S2(=O)=O | ? | 6
C[C@H]1CN([C@@H](C)CO)C(=O)c2cccc(NC(=O)Nc3cccc4ccccc34)c2O[C@@H]1CN(C)C(=O)NC1CCCCC1 | 4[16.7 µM] | -4
COc1ccc(-c2cnc3c(c2)C(=O)N([C@H](C)CO)C[C@H](C)[C@@H](CN(C)C(=O)C2CCC2)O3)cc1 | -21[16.7 µM] | 7
C[C@H](CO)N1C[C@H](C)[C@H](CN(C)C(=O)Cc2ccccc2)OCCCC[C@H](C)Oc2ccc(NC(=O)NC3CCCCC3)cc2C1=O | -27[16.7 µM] | 12
C[C@H](NC(=O)C[C@H]1C[C@H]2c3cc(NC(=O)NC4CCCC4)ccc3O[C@H]2[C@@H](CO)O1)c1ccccc1 | -2[16.7 µM] | 14
C[C@H]1CCCCO[C@H](CN(C)C(=O)c2ccccc2)[C@@H](C)CN([C@@H](C)CO)C(=O)c2cc(NC(=O)CCCN(C)C)ccc2O1 | -6[16.7 µM] | 11
COc1ccc(NC(=O)N(C)C[C@H]2Oc3ccc(NC(=O)NC4CCCCC4)cc3C(=O)N([C@@H](C)CO)C[C@@H]2C)cc1 | -4[16.7 µM] | -7
C[C@@H]1CN([C@H](C)CO)C(=O)Cc2cc(NS(=O)(=O)c3ccc(Cl)cc3)ccc2O[C@H]1CN(C)Cc1ccc(Cl)c(Cl)c1 | 5[16.7 µM] | -9
C[C@H]1CN([C@@H](C)CO)C(=O)c2cc(NC(=O)Cc3ccccc3)ccc2O[C@@H]1CN(C)C(=O)Nc1ccc2c(c1)OCO2 | 12[16.7 µM] | 15
C[C@@H]1CCCCO[C@@H](CN(C)C(=O)Nc2ccc3c(c2)OCO3)[C@H](C)CN([C@@H](C)CO)C(=O)c2cc(NC(=O)CCC(F)(F)F)ccc2O1 | -13[16.7 µM] | 12
COc1ccccc1S(=O)(=O)N(C)C[C@@H]1Oc2cc(C#CCC3CCCC3)ccc2S(=O)(=O)N([C@H](C)CO)C[C@@H]1C | 30[16.7 µM] | 2
C[C@H](CO)N1C[C@H](C)[C@H](CN(C)C(=O)Nc2ccccc2)Oc2ncc(C3=CCCC3)cc2C1=O | 14[16.7 µM] | 9
Cc1noc(C)c1NC(=O)Nc1ccc2c(c1)C(=O)N([C@H](C)CO)C[C@H](C)[C@H](CN(C)C(=O)Nc1ccc(C(F)(F)F)cc1)OCCCC[C@@H](C)O2 | -6[16.7 µM] | -5
O=C(C[C@H]1C=C[C@H](NS(=O)(=O)c2ccc(F)cc2)[C@H](CO)O1)NCc1ccncn1 | -2[16.7 µM] | 3
CC(C)C#Cc1ccc([C@@H]2[C@@H](C#N)N(C(=O)C3CC3)[C@@H]2CO)cc1 | -9[16.7 µM] | 13
CC(=O)N(C)C[C@@H]1Oc2cc(-c3ccccc3)ccc2S(=O)(=O)N([C@@H](C)CO)C[C@@H]1C | 11[16.7 µM] | -5
C[C@@H]1CN([C@@H](C)CO)C(=O)Cc2cc(NS(=O)(=O)c3ccccc3)ccc2O[C@H]1CN(C)C(=O)Nc1ccccc1 | 13[16.7 µM] | -15
C[C@H]1CCCCO[C@H](CN(C)Cc2ccc(Cl)c(Cl)c2)[C@@H](C)CN([C@@H](C)CO)C(=O)c2cc(NC(=O)Nc3ccccc3)ccc2O1 | 39[16.7 µM] | 9
COc1ccc(S(=O)(=O)N(C)C[C@@H]2Oc3c(NC(=O)Nc4ccc5c(c4)OCO5)cccc3C(=O)N([C@@H](C)CO)C[C@@H]2C)cc1 | 7[16.7 µM] | -7
C[C@H](CO)N1C[C@H](C)[C@H](CN(C)C(=O)c2cccc(F)c2)Oc2ncc(C3=CCCCC3)cc2C1=O | -11[16.7 µM] | 7
O=C(N[C@H]1CC[C@@H](CCNS(=O)(=O)c2ccc(F)cc2)O[C@@H]1CO)C1CCOCC1 | 28[16.7 µM] | 14
O=C(C[C@H]1C=C[C@@H](NC(=O)Nc2ccc3c(c2)OCO3)[C@H](CO)O1)NCCCN1CCOCC1 | 13[16.7 µM] | -8
C[C@H](NC(=O)C[C@H]1CC[C@@H](NC(=O)C2CCOCC2)[C@@H](CO)O1)c1ccccc1 | -10[16.7 µM] | -10
COc1ccccc1-c1cn(CC[C@@H]2CC[C@@H](NC(=O)C3CC3)[C@@H](CO)O2)nn1 | -2[16.7 µM] | 9
COc1ccccc1-c1cn(CC[C@H]2CC[C@H](NC(=O)C3CCCCC3)[C@H](CO)O2)nn1 | -7[16.7 µM] | 26
C[C@@H]1CCCCO[C@H](CN(C)S(C)(=O)=O)[C@H](C)CN([C@@H](C)CO)C(=O)c2cc(NC(=O)Nc3ccc4c(c3)OCO4)ccc2O1 | 14[16.7 µM] | 8
CC(C)CC#Cc1cnc2c(c1)C(=O)N([C@@H](C)CO)C[C@@H](C)[C@H](CN(C)Cc1ccc3c(c1)OCO3)O2 | 11[16.7 µM] | 3
CC(=O)N(C)C[C@H]1Oc2cc(C#Cc3ccccc3F)ccc2S(=O)(=O)N([C@@H](C)CO)C[C@H]1C | 18[16.7 µM] | 0
C[C@@H]1CN([C@@H](C)CO)C(=O)c2cccc(NC(=O)c3ccncc3)c2O[C@@H]1CN(C)Cc1ccncc1 | 3[16.7 µM] | -13
CCc1csc(N2[C@@H](C#N)[C@@H](c3ccc(-c4ccc(F)cc4)cc3)[C@@H]2CO)n1 | 16[16.7 µM] | -14
COCCNC(=O)C[C@H]1C[C@H]2c3cc(NC(=O)C4CCC4)ccc3O[C@H]2[C@H](CO)O1 | -14[16.7 µM] | -5
C[C@@H]1CN([C@H](C)CO)C(=O)c2cc(NS(=O)(=O)c3cccs3)ccc2O[C@@H](C)CCCCO[C@@H]1CN(C)C(=O)NC1CCCCC1 | -45[16.7 µM] | 9
C[C@@H]1CN([C@H](C)CO)C(=O)c2cc(NC(=O)Cc3ccccc3)ccc2O[C@@H](C)CCCCO[C@H]1CN(C)C(=O)Nc1ccc2c(c1)OCO2 | 12[16.7 µM] | 0
Cc1ccccc1-c1ccc2c(c1)O[C@@H](CN(C)C(=O)C1CC1)[C@@H](C)CN([C@H](C)CO)S2(=O)=O | 15[16.7 µM] | -7
C[C@@H]1CCCCO[C@H](CN(C)S(=O)(=O)c2ccc(Cl)cc2)[C@@H](C)CN([C@@H](C)CO)C(=O)c2cc(NC(=O)Nc3ccc(C(F)(F)F)cc3)ccc2O1 | 4[16.7 µM] | -5
Cc1noc(C)c1NC(=O)N(C)C[C@H]1OCCCC[C@@H](C)Oc2ccc(NS(=O)(=O)c3cccs3)cc2C(=O)N([C@@H](C)CO)C[C@@H]1C | -15[16.7 µM] | 1
C[C@@H]1CN([C@@H](C)CO)C(=O)Cc2cc(NC(=O)Nc3cccc4ccccc34)ccc2O[C@@H]1CN(C)Cc1ccc(-c2ccccc2)cc1 | -29[16.7 µM] | -6
C/C=C/c1ccc2c(c1)O[C@@H](CN(C)Cc1cccnc1)[C@@H](C)CN([C@H](C)CO)S2(=O)=O | 9[16.7 µM] | -6
C[C@H]1CN([C@@H](C)CO)C(=O)c2cccc(NC(=O)Nc3ccc4c(c3)OCO4)c2O[C@@H]1CN(C)S(=O)(=O)c1cn(C)cn1 | -11[16.7 µM] | 2
COc1ccc(NC(=O)Nc2ccc3c(c2)C(=O)N([C@@H](C)CO)C[C@H](C)[C@@H](CN(C)S(=O)(=O)c2ccc(OC)cc2)OCCCC[C@@H](C)O3)cc1 | -24[16.7 µM] | -8
C[C@H]1CN([C@@H](C)CO)S(=O)(=O)c2ccc(Br)cc2O[C@@H]1CN(C)C(=O)CC1CC1 | -6[16.7 µM] | 14
O=C(C[C@@H]1CC[C@H](NS(=O)(=O)c2cccc(F)c2)[C@H](CO)O1)NCc1ccc2c(c1)OCO2 | 3[16.7 µM] | -4
CN(C)C(=O)C[C@@H]1CC[C@@H]2[C@H](COc3ccc(NS(=O)(=O)c4cccc(F)c4)cc3C(=O)N2C)O1 | 0[16.7 µM] | -1
C/C=C/c1cnc2c(c1)C(=O)N([C@@H](C)CO)C[C@@H](C)[C@H](CN(C)Cc1cncnc1)O2 | -13[16.7 µM] | 1
N#C[C@H]1[C@@H](c2ccc(C#CC3(O)CCCC3)cc2)[C@@H](CO)N1C(=O)C1CCCCC1 | 11[16.7 µM] | 7
C[C@@H]1CCCCO[C@@H](CN(C)C(=O)CCC(F)(F)F)[C@@H](C)CN([C@H](C)CO)C(=O)c2cc(NC(=O)Nc3ccc4c(c3)OCO4)ccc2O1 | -10[16.7 µM] | -5
C[C@@H]1CN([C@H](C)CO)C(=O)c2cc(C#CC3(O)CCCC3)cnc2O[C@H]1CN(C)S(=O)(=O)c1cccc(F)c1 | 7[16.7 µM] | 7
O=C(Nc1ccccc1F)N[C@H]1CC[C@H](CCNS(=O)(=O)c2ccc(F)cc2)O[C@H]1CO | 0[16.7 µM] | 154*
C[C@@H]1CCCCO[C@H](CN(C)C(=O)C2CCCCC2)[C@@H](C)CN([C@H](C)CO)C(=O)c2cc(NC(=O)Nc3cccc4ccccc34)ccc2O1 | -3[16.7 µM] | 3
C[C@@H]1CN([C@@H](C)CO)C(=O)Cc2cc(NC(=O)CCC(F)(F)F)ccc2O[C@@H]1CN(C)Cc1ccc(C(=O)Nc2ccccc2N)cc1 | -68[16.7 µM] | -13
CCCNC(=O)N1C[C@@H](O)COC[C@@H]2O[C@H](CC(=O)NCCCN3CCOCC3)CC[C@H]21 | -6[16.7 µM] | -8
C[C@@H]1CN([C@@H](C)CO)C(=O)c2cc(C3=CCCCC3)cnc2O[C@H]1CN(C)C(=O)C1CCOCC1 | -17[16.7 µM] | 1
Cc1ccc(S(=O)(=O)N(C)C[C@H]2Oc3ccc(NS(=O)(=O)c4c(C)noc4C)cc3C(=O)N([C@@H](C)CO)C[C@H]2C)cc1 | -19[16.7 µM] | 2
C[C@H]1CN([C@@H](C)CO)C(=O)Cc2cc(NC(=O)CCCCCC(=O)Nc3ccccc3N)ccc2O[C@@H]1CN(C)Cc1ccncc1 | 7[16.7 µM] | -6

Part of the list above, set out differently:
Each structure is followed by: HIV Env fusion, Yeast UUG start
C[C@H]1CN([C@@H](C)CO)S(=O)(=O)c2ccc(Br)cc2O[C@@H]1CN(C)C(=O)CC1CC1
    -6[16.7 µM], 14
O=C(C[C@@H]1CC[C@H](NS(=O)(=O)c2cccc(F)c2)[C@H](CO)O1)NCc1ccc2c(c1)OCO2
    3[16.7 µM], -4
CN(C)C(=O)C[C@@H]1CC[C@@H]2[C@H](COc3ccc(NS(=O)(=O)c4cccc(F)c4)cc3C(=O)N2C)O1
    0[16.7 µM], -1
C/C=C/c1cnc2c(c1)C(=O)N([C@@H](C)CO)C[C@@H](C)[C@H](CN(C)Cc1cncnc1)O2
    -13[16.7 µM], 1
N#C[C@H]1[C@@H](c2ccc(C#CC3(O)CCCC3)cc2)[C@@H](CO)N1C(=O)C1CCCCC1
    11[16.7 µM], 7
C[C@@H]1CCCCO[C@@H](CN(C)C(=O)CCC(F)(F)F)[C@@H](C)CN([C@H](C)CO)C(=O)c2cc(NC(=O)Nc3ccc4c(c3)OCO4)ccc2O1
    -10[16.7 µM], -5

(more compounds)
mol | HIV Env fusion | Yeast UUG start
O=C(N[C@H]1CC[C@@H](CCNC(=O)c2ccccc2F)O[C@H]1CO)c1cnccn1 | -2[16.7 µM] | 1
C[C@@H]1CN([C@H](C)CO)C(=O)c2cc(C#C[C@@H](C)O)cnc2O[C@H]1CN(C)Cc1cccc(F)c1 | -7[16.7 µM] | -10
C[C@H]1CN([C@@H](C)CO)C(=O)c2cc(C#Cc3ccccc3F)cnc2O[C@@H]1CN(C)C(=O)C1CCOCC1 | 0[16.7 µM] | -4
Cc1noc(C)c1NC(=O)Nc1cccc2c1O[C@@H](CN(C)C(=O)Nc1cccc3ccccc13)[C@H](C)CN([C@@H](C)CO)C2=O | -15[16.7 µM] | 41
C[C@@H]1CN([C@@H](C)CO)C(=O)c2cc(C#Cc3ccccn3)cnc2O[C@@H]1CN(C)Cc1ccccc1 | 19[16.7 µM] | -7
C[C@@H]1CN([C@@H](C)CO)C(=O)c2cc(NC(=O)NC3CCCCC3)ccc2O[C@H]1CN(C)C(=O)Nc1ccc2c(c1)OCO2 | 14[16.7 µM] | 6
COc1cccc(-c2ccc3c(c2)O[C@@H](CN(C)C(=O)C2CCC2)[C@@H](C)CN([C@@H](C)CO)S3(=O)=O)c1 | 6[16.7 µM] | -5
CN1C(=O)c2cc(NC(=O)c3ccc(F)cc3)ccc2OC[C@@H]2O[C@@H](CC(=O)N3CCOCC3)CC[C@H]21 | -1[16.7 µM] | 11

Screens as filed in PubChem.

The list is partial; the hit share may differ from the screen's.
